Screens (PubChem)
Vaccinia inh = blocks a specific stage of Vaccinia orthopoxvirus infection | Vaccinia-infected cells, mCherry/Venus stage reporter fluorescence; active compounds read low; some inactives read as strong as hits | activity change (mCherry), % (concentration not given with the values) | hit rate 0.01% among 89,000 | AID 1053133;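 active = mCherry past -33% and 40 or more points under the early reporter, replicates agreeing; inconclusive = past -33% without that gap or agreement; tested in A549 cells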;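 note: scaled between vehicle wells and reference inhibitor wells; 23 nL library stock went into each well; one replicate is shown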
Vaccinia inh Venus = second read-out of Vaccinia inh, no call of its own (marks repeat the call); activity change (Venus), %; measured here: Venus reporter, other viral stage;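 negative = less Venus signal; first of two replicates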
The depositor's hits bear a star; ? = inconclusive; . = no result given. Some of the compounds tested. The share of hits here may be higher or lower than overall.

SMILES	Vaccinia inh	Vaccinia inh Venus
C[C@H](CO)N1C[C@H](C)[C@@H](CN(C)Cc2ccccc2)OCCCC[C@H](C)Oc2ccc(NS(=O)(=O)c3ccc(F)cc3)cc2C1=O	?	.
CO[C@H]1CN(C)C(=O)c2ccc(NS(C)(=O)=O)cc2OC[C@@H](C)NC[C@@H]1C	-4	0
C[C@H]1CN([C@@H](C)CO)C(=O)c2cc(C#CC3CC3)cnc2O[C@H]1CN(C)C(=O)Nc1ccccc1	8	-7
CC(C)CC#Cc1ccc2c(c1)O[C@@H](CN(C)C(=O)c1ccccc1)[C@H](C)CN([C@@H](C)CO)S2(=O)=O	?	.
CCC(=O)N[C@@H]1C=C[C@H](CC(=O)NCCN2CCCCC2)O[C@@H]1CO	10	5
C[C@@H]1CN([C@@H](C)CO)C(=O)c2cc(NC(=O)NC3CCCCC3)ccc2O[C@H]1CN(C)Cc1ccc2c(c1)OCO2	-12	-17
C[C@@H](NC(=O)C[C@@H]1CC[C@@H](NC(=O)C2CC2)[C@@H](CO)O1)c1ccccc1	5	3
CCCNC(=O)[C@@H]1N[C@@H]2c3ccc(C4=CCCC4)c(=O)n3C[C@@H]2[C@H]1CO	-2	9
O=C(NCC[C@H]1CC[C@H](NS(=O)(=O)c2ccccc2)[C@@H](CO)O1)c1ccccc1F	1	2
CCCN1[C@@H]2c3ccc(-c4ccccc4)c(=O)n3C[C@@H]2[C@@H](CO)[C@@H]1C(=O)NCCCN1CCOCC1	15	18
COCC#Cc1ccc2c(c1)O[C@@H](CN(C)C(=O)C1CCC1)[C@H](C)CN([C@H](C)CO)S2(=O)=O	8	8
C[C@H](CO)N1C[C@H](C)[C@@H](CN(C)S(=O)(=O)c2cccs2)Oc2ccc(NC(=O)CCC(F)(F)F)cc2C1=O	6	0
CO[C@H]1CN(C)C(=O)c2ccc(NC(=O)Cc3ccccc3)cc2OC[C@@H](C)NC[C@H]1C	-4	-4
CN1C(=O)c2cc(NC(=O)c3cnccn3)ccc2OC[C@H]2O[C@@H](CC(=O)N[C@@H]3CCN(Cc4ccccc4)C3)CC[C@H]21	18	8
C[C@@H]1CCCCO[C@H](CN(C)C(=O)Nc2ccccc2)[C@H](C)CN([C@@H](C)CO)C(=O)c2cc(NC(=O)Cc3ccccc3)ccc2O1	-6	4
COc1ccc(CN2CC3(CN(C(C)=O)C3)c3c([nH]c4cc(OC)ccc34)[C@H]2CO)cc1	1	1
CCN1[C@@H]2c3ccc(-c4cccc(F)c4)c(=O)n3C[C@@H]2[C@@H](CO)[C@@H]1C(=O)N1CCCCC1	-24	-13
COc1ccc(-c2ccc3c(c2)[C@@H]2[C@@H](CCN2C(=O)CN2CCOCC2)[C@H](CO)N3)cc1	4	3
CNC[C@@H]1Oc2cc(-c3ccncc3)ccc2S(=O)(=O)N([C@H](C)CO)C[C@H]1C	22	24
Cc1noc(C)c1S(=O)(=O)Nc1ccc2c(c1)C(=O)N([C@H](C)CO)C[C@H](C)[C@H](CN(C)S(=O)(=O)c1ccc(Cl)cc1)OCCCC[C@@H](C)O2	-23	-28
O=C(C[C@H]1C=C[C@H](NC(=O)Nc2cccc(F)c2)[C@@H](CO)O1)NCC1CCCCC1	4	3
CC(=O)N(C)C[C@@H]1Oc2cc(-c3ccccc3C)ccc2S(=O)(=O)N([C@@H](C)CO)C[C@H]1C	-2	-4
COc1ccccc1C(=O)N1C[C@@H]2[C@H](c3ccccc31)[C@H](CO)N2C(=O)C1CC1	16	13
Cc1noc(C)c1S(=O)(=O)Nc1ccc2c(c1)C(=O)N([C@H](C)CO)C[C@@H](C)[C@H](CN(C)Cc1ccc(C(F)(F)F)cc1)O2	0	2
CCCNC(=O)N1CC2(CN(C(=O)C3CC3)C2)c2c([nH]c3cc(OC)ccc23)[C@@H]1CO	6	-2
SMILES	Vaccinia inh	Vaccinia inh Venus
O=C(Nc1cc(F)ccc1F)N[C@H]1CC[C@@H](CC(=O)N2CCc3ccccc3C2)O[C@@H]1CO	-14	-2
Cc1noc(C)c1NC(=O)N(C)C[C@@H]1Oc2c(NC(=O)Nc3ccc(C(F)(F)F)cc3)cccc2C(=O)N([C@H](C)CO)C[C@H]1C	9	6
Cc1ccc(S(=O)(=O)Nc2ccc3c(c2)C(=O)N([C@H](C)CO)C[C@H](C)[C@H](CN(C)C(=O)CCCN(C)C)OCCCC[C@H](C)O3)cc1	13	-2
CNC[C@H]1OCCCC[C@H](C)Oc2ccc(N)cc2C(=O)N([C@@H](C)CO)C[C@@H]1C	4	13
COc1cccc(-c2cccc(-c3nc(C(=O)NCC(F)(F)F)cc4c3[C@H](CCO)N([S@@](=O)C(C)(C)C)C4)c2)c1	?	.
C[C@@H](NC(=O)C[C@H]1CC[C@H](NC(=O)C2CC2)[C@@H](CO)O1)c1ccccc1	-1	-1
COc1ccc(S(=O)(=O)N(C)C[C@@H]2OCCCC[C@H](C)Oc3ccc(NC(=O)Cc4ccccc4)cc3C(=O)N([C@H](C)CO)C[C@@H]2C)cc1	-26	-23
O=C(C[C@H]1CC[C@H]2[C@@H](COC[C@H](O)CN2C(=O)C2CCCC2)O1)NCc1ccncc1	13	8
CC=Cc1ccc2n(c1=O)C[C@H]1[C@H](CO)[C@@H](C(=O)N[C@@H](C)c3ccccc3)N(C)[C@@H]21 (mixture of isomers)	7	8
O=C(C[C@H]1C=C[C@H](NS(=O)(=O)c2cccc(F)c2)[C@@H](CO)O1)N1CCCCC1	8	-6
CN1C(=O)c2cc(NC(=O)C3CCCCC3)ccc2OC[C@@H]2O[C@H](CC(=O)NCCc3ccncc3)CC[C@H]21	6	4
C[C@@H]1CN([C@H](C)CO)C(=O)c2cccc(NC(=O)c3ccc(-c4nccs4)cc3)c2O[C@@H]1CN(C)CC1CC1	1	-2
Cc1ccc(-c2cnc3c(c2)C(=O)N([C@@H](C)CO)C[C@@H](C)[C@@H](CN(C)C(=O)Cc2ccncc2)O3)cc1	?	.
CO[C@H]1CN(C)C(=O)c2cc(NS(C)(=O)=O)ccc2OC[C@@H](C)N(CC2CC2)C[C@@H]1C	8	2
C[C@H](CO)N1C[C@H](C)[C@H](CN(C)Cc2ccc(Oc3ccccc3)cc2)OCc2ccccc2-c2c(n(C)c3ccccc23)C1=O	?	.
CN1C(=O)c2cc(NC(=O)c3ccc(F)cc3)ccc2OC[C@H]2O[C@H](CC(=O)NCC3CC3)CC[C@@H]21	-4	1
C[C@@H]1CN([C@@H](C)CO)C(=O)c2cccc(NC(=O)C3CC3)c2O[C@@H]1CN(C)Cc1ccc(Cl)c(Cl)c1	-2	3
C[C@H]1CN([C@@H](C)CO)C(=O)c2cccc(NC(=O)Nc3ccc(F)cc3)c2O[C@@H]1CN(C)CC1CCCCC1	-15	-10
COc1ccccc1NC(=O)C[C@H]1CC[C@H]2[C@@H](COc3ccc(NC(=O)C(C)C)cc3C(=O)N2C)O1	17	15
CNC(=O)C[C@H]1CC[C@H]2[C@H](COc3ccc(NC(=O)NC4CCCC4)cc3C(=O)N2C)O1	7	8
CNC[C@H]1Oc2c(NS(C)(=O)=O)cccc2C(=O)N([C@@H](C)CO)C[C@@H]1C	2	1
CCCNC(=O)N[C@H]1CC[C@@H](CC(=O)NCCc2ccccc2)O[C@@H]1CO	23	21
O=C(NCCc1ccccc1)[C@H]1[C@H](CO)[C@H]2Cn3c(cccc3=O)[C@@H]1N2Cc1ccccn1	8	16
COc1ccc(NC(=O)N(C)C[C@@H]2Oc3ccc(NC(=O)CCN4CCOCC4)cc3C(=O)N([C@H](C)CO)C[C@@H]2C)cc1	1	2
CN(C)C(=O)c1ccc(-c2ccc([C@H]3[C@@H](CO)N4CCCCN(CCC(F)(F)F)C[C@@H]34)cc2)cc1	8	-10

Part of the list above, with bars between the fields.
Structure | Vaccinia inh | Vaccinia inh Venus
O=C(Nc1cc(F)ccc1F)N[C@H]1CC[C@@H](CC(=O)N2CCc3ccccc3C2)O[C@@H]1CO | -14 | -2
Cc1noc(C)c1NC(=O)N(C)C[C@@H]1Oc2c(NC(=O)Nc3ccc(C(F)(F)F)cc3)cccc2C(=O)N([C@H](C)CO)C[C@H]1C | 9 | 6
Cc1ccc(S(=O)(=O)Nc2ccc3c(c2)C(=O)N([C@H](C)CO)C[C@H](C)[C@H](CN(C)C(=O)CCCN(C)C)OCCCC[C@H](C)O3)cc1 | 13 | -2
CNC[C@H]1OCCCC[C@H](C)Oc2ccc(N)cc2C(=O)N([C@@H](C)CO)C[C@@H]1C | 4 | 13
COc1cccc(-c2cccc(-c3nc(C(=O)NCC(F)(F)F)cc4c3[C@H](CCO)N([S@@](=O)C(C)(C)C)C4)c2)c1 | ? | .
C[C@@H](NC(=O)C[C@H]1CC[C@H](NC(=O)C2CC2)[C@@H](CO)O1)c1ccccc1 | -1 | -1
COc1ccc(S(=O)(=O)N(C)C[C@@H]2OCCCC[C@H](C)Oc3ccc(NC(=O)Cc4ccccc4)cc3C(=O)N([C@H](C)CO)C[C@@H]2C)cc1 | -26 | -23
O=C(C[C@H]1CC[C@H]2[C@@H](COC[C@H](O)CN2C(=O)C2CCCC2)O1)NCc1ccncc1 | 13 | 8
CC=Cc1ccc2n(c1=O)C[C@H]1[C@H](CO)[C@@H](C(=O)N[C@@H](C)c3ccccc3)N(C)[C@@H]21 (mixture of isomers) | 7 | 8
O=C(C[C@H]1C=C[C@H](NS(=O)(=O)c2cccc(F)c2)[C@@H](CO)O1)N1CCCCC1 | 8 | -6
CN1C(=O)c2cc(NC(=O)C3CCCCC3)ccc2OC[C@@H]2O[C@H](CC(=O)NCCc3ccncc3)CC[C@H]21 | 6 | 4

Next part.
SMILES	Vaccinia inh	Vaccinia inh Venus
CO[C@@H]1CN(C)C(=O)c2cc(NC(=O)C3CCCCC3)ccc2OC[C@@H](C)N(C)C[C@@H]1C	3	8
Cc1noc(C)c1NC(=O)N(C)C[C@@H]1Oc2ccc(NS(=O)(=O)c3ccc(Cl)cc3)cc2C(=O)N([C@@H](C)CO)C[C@H]1C	21	2
Cn1cnc(S(=O)(=O)N[C@H]2CC[C@@H](CC(=O)N3CCN(c4ccccc4)CC3)O[C@H]2CO)c1	3	7
C[C@H]1CN([C@@H](C)CO)S(=O)(=O)c2ccc(C#Cc3ccccc3)cc2O[C@H]1CN(C)C(=O)C1CC1	?	.
C[C@H](CO)N1C[C@H](C)[C@H](CN(C)Cc2ccncc2)Oc2c(NC(=O)C3CC3)cccc2C1=O	20	11
C[C@@H]1CN([C@H](C)CO)C(=O)c2cc(-c3ccncc3)cnc2O[C@@H]1CN(C)S(=O)(=O)c1ccccc1	6	13
C[C@H]1CN([C@@H](C)CO)C(=O)c2cc(C3=CCCCC3)cnc2O[C@@H]1CN(C)S(=O)(=O)c1cn(C)cn1	3	1
C[C@H]1CN([C@@H](C)CO)C(=O)c2cccc(NC(=O)Nc3ccc4c(c3)OCO4)c2O[C@H]1CN(C)Cc1ccc(C(F)(F)F)cc1	-13	-8
CN1[C@@H]2c3ccc(/C=C/c4ccccc4)c(=O)n3C[C@@H]2[C@@H](CO)[C@@H]1C(=O)N1CCOCC1	-13	-7
CCN1[C@@H]2c3ccc(C4=CCCCC4)c(=O)n3C[C@H]1[C@H](CO)[C@H]2C(=O)NC1Cc2ccccc2C1	-2	-3
CCCC(=O)Nc1ccc2c(c1)OC[C@H](C)N(C(=O)CC1CC1)C[C@@H](C)[C@H](OC)CN(C)C2=O	15	9
CO[C@H]1CN(C)C(=O)c2cc(NS(=O)(=O)c3ccc(Cl)cc3)ccc2OC[C@@H](C)NC[C@H]1C	4	7
CS(=O)(=O)N1CC(=O)N2[C@@H](CO)[C@H](c3ccc(Br)cc3)[C@@H]2C1	-4	6
O=C(CCN1CCCCC1)NCC[C@H]1CC[C@H](NC(=O)c2ccc(F)cc2)[C@H](CO)O1	16	21
O=C(C[C@@H]1CC[C@@H]2[C@H](COC[C@H](O)CN2Cc2ccc(Cl)cc2)O1)NCc1cccc(F)c1	-31	-33
CC(C)OC(=O)N(C)C[C@@H]1OCc2ccccc2-c2ccccc2C(=O)N([C@H](C)CO)C[C@H]1C	21	9
COc1ccc(NC(=O)N(C)C[C@H]2OCc3ccccc3-c3c(n(C)c4ccccc34)C(=O)N([C@@H](C)CO)C[C@@H]2C)cc1	-11	0
CCNC(=O)c1cc2c(c(-c3cccc(C4=CCCC4)c3)n1)[C@H](CCO)N([S@@](=O)C(C)(C)C)C2	6	22
C[C@@H]1CN([C@H](C)CO)C(=O)Cc2cc(NS(=O)(=O)c3ccc(F)cc3)ccc2O[C@@H]1CN(C)S(C)(=O)=O	-6	0
CC(C)NC(=O)N(C)C[C@H]1Oc2cc(-c3ccccc3F)ccc2S(=O)(=O)N([C@@H](C)CO)C[C@@H]1C	-23	-12
CN1C(=O)c2cc(NC(=O)c3cccc(C(F)(F)F)c3)ccc2OC[C@@H]2O[C@@H](CC(=O)NCCN3CCCC3)CC[C@@H]21	-5	0
CC(C)NC(=O)N(C)C[C@H]1Oc2cc(-c3cncnc3)ccc2S(=O)(=O)N([C@H](C)CO)C[C@H]1C	10	2
CO[C@H]1CN(C)C(=O)c2cc(NC(=O)Nc3ccccc3F)ccc2OC[C@@H](C)N(C(C)=O)C[C@@H]1C	10	3
O=C(C[C@@H]1CC[C@@H]2[C@H](COC[C@@H](O)CN2C(=O)c2ccccc2F)O1)NCc1ccccc1	13	15
COc1ccc(S(=O)(=O)N(C)C[C@H]2Oc3ccc(NC(=O)NC4CCCCC4)cc3CC(=O)N([C@@H](C)CO)C[C@H]2C)cc1	6	2
C[C@@H]1CCCCO[C@@H](CN(C)C(=O)Nc2ccc(F)cc2)[C@H](C)CN([C@H](C)CO)C(=O)c2cc(N(C)C)ccc2O1	-1	-5
COc1ccc(NC(=O)Nc2ccc3c(c2)C(=O)N([C@H](C)CO)C[C@H](C)[C@@H](CN(C)C(=O)NC2CCCCC2)OCCCC[C@H](C)O3)cc1	5	6
COc1cccc(S(=O)(=O)Nc2ccc3c(c2)C(=O)N(C)[C@H]2CC[C@@H](CC(=O)NCC4CCCCC4)O[C@@H]2CO3)c1	19	11
C[C@@H]1CN([C@H](C)CO)C(=O)Cc2cc(NC(=O)C3CCCCC3)ccc2O[C@H]1CN(C)C(=O)Nc1cccc2ccccc12	13	11
C[C@@H]1CN([C@H](C)CO)C(=O)c2cc(C#CC3(O)CCCC3)cnc2O[C@@H]1CN(C)Cc1cccnc1	-4	5
